High-throughput results from PubChem.
Mtb H37Rv = Mycobacterium tuberculosis H37Rv growth inhibition, putative kinase inhibitor library, confirmatory dose response (AID 2842). M. tuberculosis H37Rv growth inhibition; higher % means a stronger effect; some inactives read as strong as hits. inhibition, % at 10 µg/mL; hits with a dose series show IC90 in µg/mL. 5.2% of 24,000 active;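 active = confirmed in a dose series; about a fifth of its hits are not listed in these tables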;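 also: bacteria incubated one week before Alamar blue readout; 0% = bacteria only wells and 100% = bacteria with high antibiotic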
An asterisk follows results filed as active.

SMILES | Mtb H37Rv
O=C(CN1C(=O)c2ccccc2C1=O)Nc1nnc(-c2ccc3c(c2)OCCO3)o1 | -6%

Not all compounds are listed; the hit share may differ from the screen's.
